YopH inh: blocks Yersinia enterocolitica YopH tyrosine phosphatase | fluorescence Ex485/Em525 | 140,000 tested, 0.16% active | AID 898 | inhibition, %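 (about 10 µM by stock and volumes)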;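 active = inhibition of 50% or more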;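 also: controls were vehicle for no effect and minimum signal wells for full effect; inactives centre near -20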
Arbovirus inh: arbovirus infection inhibition; arbovirus infection cell-based antiviral screen; inhibition, % at 10 µM; 200,000 tested, 0.37% active; AID 1251;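 active = inhibition from about 30%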;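 also: bluetongue infection of BSR cells; cell survival read as ATP light after 72 h; 0% = infected wells without compound and 100% = uninfected wells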
RecA intein inh: Mtb RecA intein splicing inhibition. cell-free RecA intein splicing, fluorescence. inhibition, %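 (about 9 µM by stock and volumes)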. P9WHJ3. 290,000 tested, 0.75% active; in the data active = inhibition above about 30%; inconclusive = no clear call, values can overlap the other calls;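 also: 0% = vehicle wells and 100% = reference inhibitor control wells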
Target sequence (P9WHJ3 whole entry, looked up): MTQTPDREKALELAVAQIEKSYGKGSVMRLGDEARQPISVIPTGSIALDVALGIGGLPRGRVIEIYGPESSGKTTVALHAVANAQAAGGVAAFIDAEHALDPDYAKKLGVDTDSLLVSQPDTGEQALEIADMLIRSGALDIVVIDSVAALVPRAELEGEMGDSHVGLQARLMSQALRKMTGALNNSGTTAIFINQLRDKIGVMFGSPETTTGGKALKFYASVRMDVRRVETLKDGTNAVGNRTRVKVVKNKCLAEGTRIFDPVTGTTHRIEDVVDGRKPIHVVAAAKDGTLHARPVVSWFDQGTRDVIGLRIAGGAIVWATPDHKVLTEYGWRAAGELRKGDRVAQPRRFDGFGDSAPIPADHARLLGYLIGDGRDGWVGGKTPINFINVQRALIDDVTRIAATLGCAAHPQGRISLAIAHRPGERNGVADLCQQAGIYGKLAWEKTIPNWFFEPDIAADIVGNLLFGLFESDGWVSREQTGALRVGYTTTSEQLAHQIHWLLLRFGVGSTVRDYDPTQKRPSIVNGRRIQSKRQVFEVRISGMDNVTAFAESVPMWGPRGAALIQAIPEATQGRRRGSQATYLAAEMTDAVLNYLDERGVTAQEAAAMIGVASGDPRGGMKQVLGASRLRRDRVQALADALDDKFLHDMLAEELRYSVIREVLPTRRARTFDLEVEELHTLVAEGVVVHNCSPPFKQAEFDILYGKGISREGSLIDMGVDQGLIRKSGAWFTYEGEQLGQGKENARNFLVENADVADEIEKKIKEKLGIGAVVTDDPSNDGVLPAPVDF
Mtb H37Rv: M. tuberculosis H37Rv growth inhibitors, H37Rv strain (AID 1626); M. tuberculosis H37Rv growth inhibition; higher % means a stronger effect; inhibition, % at 10 µM, or IC50 in µM where a hit was titrated; 220,000 tested, 0.95% active;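 active = confirmed in a dose series; inconclusive = inhibition above 80% but not taken into the dose series; inactive = below 80% or under 30% at every dose of the series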;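 also: bacteria incubated seven days before Alamar blue readout; 0% = bacteria only wells and 100% = bacteria with antibiotic wells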
Mtb betalactam: beta-lactam sensitization of Mtb H37Rv | M. tuberculosis H37Rv growth with meropenem, percent inhibition; hits of this screen are not shown here | inhibition, % at 25 µM | 330,000 tested, 0.27% active;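 active = about 74% or more and at least 40 points above the plate without the antibiotic, then above 30% in a dose series; inconclusive = first-round hits that could not be retested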;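 also: growth measured after seven days incubation then overnight dye step; 0% = bacteria only wells and 100% = bacteria with antibiotic; twin plates without the antibiotic show which effects depend on it; some results filed as inactive read as strong as hits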
Arbovirus inh repeat: also measured in Arbovirus inh; calls as there; inhibition, %; measured here: 10K subset replicate screen; many hits read low in the repeat;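 first of two repeat runs on a subset; 0% = infected and 100% = uninfected wells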
Active calls of the source: *; ? = inconclusive; . = not tested or not shown; & = joins results of further samples.

SMILES | YopH inh | Arbovirus inh | RecA intein inh | Mtb H37Rv | Mtb betalactam | others
COc1cccc(NC(=O)Cn2c(CCC(=O)O)ccc2-c2cccs2)c1 | . | -4 | -3.2 | -1% | 2
CC(C)Oc1ccc2c(=O)c(-c3ccccc3)coc2c1 | -36 | -2&-1 | 1.6 | 21%&3% | 6
COc1ccc(CCNC(=O)/C=C/c2ccco2)cc1OC | . | . | -1.3 | . | -3
Cc1nn(CC#N)c(=O)n1-c1ccccc1F | -18 | 3 | -0.4 | -4% | -5
Cc1nnc(SCC(=O)N2c3ccccc3C(C)(c3ccccc3)CC2(C)C)s1 (stereo unspecified) | -18 | 3 | 12 | 5% | -10
COc1ccc(CCNC(=O)C(=O)NCC2OCCN2S(=O)(=O)c2ccc(Cl)cc2)cc1OC (stereo unspecified) | . | . | -8.8 | . | 0
CC(=O)N1CCc2cc(C(=O)CN3CCC(C)CC3)ccc21 | . | 9 | -1.4 | -2% | -2 | Arbovirus inh repeat=3
CC(=O)N/C(=C/c1ccc(OS(=O)(=O)c2ccc(C)cc2)cc1)C(=O)Nc1ccc(C(=O)O)cc1 | . | . | -0.1 | 6% | 1
CCN1CCN(CCCOc2ccccc2-c2ccccc2)CC1 | . | -18 | 1.8 | 0% | 2
COCc1cc(N2CCOCC2)nc(-c2ccccc2)n1 | . | 18 | -0.9 | 4% | -3
O=C(N/N=C/c1ccco1)c1cc(-c2ccc(Cl)cc2)n[nH]1 | . | . | -2.3 | 4% | 15
Cc1ccc(CCNC(=O)C2CCN(C(=O)N(C)C)CC2)cc1 | -27 | 1 | 3.7 | -6% | -1
CCOC(=O)/C(C#N)=C\c1c(OCC)n(CC)c2ccccc12 | -24 | -12 | -0.1 | 1% | 5
CC1=C(C(=O)OC(C)C)C(c2ccc(F)cc2)NC(=O)N1 (stereo unspecified) | -28 | 3 | -0.3 | -9% | -2
O=C(COc1ccc(Cl)cc1)N1CCN(c2cccc(C(F)(F)F)c2)CC1 | -23 | -30 | 8.4 | 11% | 31

2 records drawn at random from those above, as already listed:
SMILES | YopH inh | Arbovirus inh | RecA intein inh | Mtb H37Rv | Mtb betalactam | others
CC(=O)N/C(=C/c1ccc(OS(=O)(=O)c2ccc(C)cc2)cc1)C(=O)Nc1ccc(C(=O)O)cc1 | . | . | -0.1 | 6% | 1
Cc1nn(CC#N)c(=O)n1-c1ccccc1F | -18 | 3 | -0.4 | -4% | -5

New compounds follow:
SMILES | YopH inh | Arbovirus inh | RecA intein inh | Mtb H37Rv | Mtb betalactam | others
O=C(CSCc1ccc(F)cc1)NCc1ccc(F)cc1 | . | 4 | 9.7 | 5% | -3
COc1ccc(CN=CC2=C(O)CNC2=O)cc1OC | -26 | 3 | -4.0 | 8% | -2 | Arbovirus inh repeat=6
Cc1cccc(C)c1NC(=O)COC(=O)c1ccc(N2CCCC2)c([N+](=O)[O-])c1 | 13 | 5 | 0.1 | -3% | 1
CN(CC(=O)Nc1ccccc1Br)C(=O)c1cccc(S(=O)(=O)NCc2ccccc2)c1 | . | . | 7.3 | . | -5
O=C(Nc1ccc(F)cc1Cl)c1ccc2c(=O)n3c(nc2c1)CCC3 | . | . | 0.9 | . | -10
Cn1c(CCN2CCOCC2)nc2cc(NC(=O)COc3ccc([N+](=O)[O-])cc3)ccc21 | . | . | -2.3 | . | 45
Cc1ccc(N(C(=O)c2ccco2)C(C(=O)NC2CCCC2)c2ccco2)c(C)c1 (stereo unspecified) | . | . | 3.2 | . | -10
COc1ccc(S(=O)(=O)Nc2cccc(F)c2C)cc1C(=O)N1CCOCC1 | . | 5 | -4.3 | 1% | -1
CCc1nc(CN2CCN(c3ccc(C(F)(F)F)cn3)CC2)c(C)[nH]1 | . | . | -1.6 | 10% | -5
O=C(NCc1ccc2c(c1)OCO2)C1CCCN1C(=O)Nc1ccc(Cl)cc1 (stereo unspecified) | . | . | 0.0 | . | -10
CCOC(=O)C1C(c2ccccc2Cl)NC(=O)N(C)C1(O)C(F)(F)F (stereo unspecified) | -49 | 12 | -0.3 | 3% | -11
O=C(CSc1nc2ccccc2s1)Nc1ccc(Cl)c(C(=O)O)c1 | . | 2 | 3.1 | 4% | 5
CC1C(=O)N2CCCc3cc(NC(=O)C(=O)NCCc4ccccc4)cc1c32 (stereo unspecified) | . | . | 1.0 | . | -5
CC(C)C[C@H](NC(=O)c1[nH]cnc1C(=O)N[C@@H](C)c1ccccc1)C(=O)OCc1ccccc1 | . | . | 0.6 | 2% | -7
C=CCOC(=O)C1=C(C)OC(N)=C(C#N)C1c1ccoc1 (stereo unspecified) | -12 | 17 | . | 2% | ?
CC(C)[C@H](NC(=O)C1CCCC1)c1nc2ccccc2[nH]1 | . | 0 | -3.7 | 6% | 0
C/C(Cn1nnc2ccccc21)=N\NC(=O)c1ccc(Br)cc1 | . | -4 | 3.4 | -5% | 2
CCN(CC)CCCNc1ncnc2scc(-c3ccc(F)cc3)c12 | . | . | 1.9 | . | 1
O=C(CNC(=O)c1cccc(F)c1)N/N=C/C=C/c1ccccc1 | . | 1 | 2.7 | -3% | 7
Cc1cccc(OCC(=O)NCCCNC(=O)c2ccc(C)nc2)c1 | . | . | 1.3 | . | 1
C[C@]12CCC(=O)C[C@@H]1CC[C@@H]1[C@@H]2CC[C@@]2(C)[C@H]1CC[C@]2(C)O | . | -1 | . | -2% | .
CC(C1CC1)N(Cc1ccccc1)C(=S)Nc1cccc(C(F)(F)F)c1 (stereo unspecified) | -26 | -6 | 13 | 7% | 6
COc1ccc(Oc2ccccc2/C=N/O)cc1 | -14 | 8 | 3.2 | 6% | 9
CCN1CCC2(CCNC2)C1 (stereo unspecified) | -24 | 3 | 1.3 | -3% | -15
Nc1nc(NCC(=O)O)nc(NC2CCCCC2)c1[N+](=O)[O-] | . | . | 4.4 | . | -5
COc1ccc(C(=O)CSc2nnc(-c3ccccn3)n2Cc2ccco2)cc1 | -34 | -1 | 2.2 | -7% | -2
Nc1ccc(C(=O)Nc2ccco2)cc1 | -6 | 1 | -1.4 | -5% | -5
Cc1ccc(-c2cc(-c3ccc(F)cc3)nc(N)c2C#N)o1 | -2 | 7 | -3.2 | 14% | 33
CCCCOC(=O)NC1(C)CCS(=O)(=O)C1 (stereo unspecified) | -26 | -4 | 6.5 | 0% | -6
O=C(CCNS(=O)(=O)c1ccccc1)Nc1ccc(Cl)cc1C(=O)c1ccccc1 | -10 | 8 | 4.5 | 2% | 6
O=C(CSc1ncnc2nc[nH]c12)N1CCN(c2ccc(Cl)cc2)CC1 | -1 | 8 | . | -6% | 2
CCCCC(=O)Nc1cccc(NC(=S)NC(=O)C(C)C)c1 | -32 | 2 | -3.4 | 10% | 6
COC(=O)COc1ccc(S(=O)(=O)N2CCN(c3ccc(F)cc3)CC2)cc1 | -12 | -4 | 1.1 | -6% | 3
CC(=O)c1ccc(S(=O)(=O)N2CCN(S(=O)(=O)c3ccccc3C(F)(F)F)CC2)cc1 | . | . | -0.6 | . | 0
CC1=NN(C(=O)c2ccccc2C)C(O)(c2ccc(Cl)cc2)C1 (stereo unspecified) | . | . | -0.8 | . | 0
Cc1ccccc1Cc1c(C)nc2nc(SCC(=O)NCc3ccco3)nn2c1C | -24 | -18 | 3.4 | -5% | 6
COc1ccc(-c2nnc(Nc3ccc(CC(N)=O)cc3)c3ccccc23)cc1 | -7 | -2 | -5.6 | 1% | 61
CCCC(=O)Nc1ccc(C(=O)NNC(=O)COc2ccc(Br)c(C)c2)cc1 | -4 | 5 | -4.4 | . | 0
CCOc1cc(CNC(=O)CCCn2c(=O)c3cccn3c3cccnc32)cc(OCC)c1OCC | . | . | -4.2 | . | 2
CCCn1c(CNC(=O)Cc2ccccc2)nc2ccccc21 | -21 | -2 | -1.3 | -2% | 3 | Arbovirus inh repeat=-5
Cn1c(=O)c(Nc2ccc(Cl)cc2)c2c3c(cccc31)C(=O)c1ccccc1-2 | . | -3 | 3.6 | 10% | 6
CCCCCOC(=O)Cn1c(SCC(=O)Nc2ccccc2)nc2c1c(=O)[nH]c(=O)n2C | -23 | -22 | -1.1 | 1% | 5
Cc1cccc(C)c1NC(=O)COC(=O)c1ccccc1Nc1ccccc1 | -27 | 6 | -7.8 | -6% | -4
Cc1ccccc1N(CC(=O)N/N=C/c1ccc(Cl)cc1)C(=O)c1ccccc1 | 1 | -23 | -1.3 | 1% | 3
COc1ccc(NC(=O)CN(c2ccc(C)cc2)S(=O)(=O)c2c(C)nn(C)c2C)cc1 | . | . | -0.5 | . | 0
O=C(OCCNC(=O)c1ccc2ccccc2n1)c1cccnc1 | -10 | 0 | -2.2 | -6% | 6
CN1CCN(CC(=O)Nc2c(C(=O)c3ccccc3)oc3ccccc23)CC1 | . | . | 1.2 | . | 8
COc1ccc(C(=O)CC(=O)C(=O)Nc2ccc(C)c(Cl)c2)cc1 | . | . | 0.6 | . | 5
CCCn1c(-c2cccc([N+](=O)[O-])c2)nc2c1c(=O)[nH]c(=O)n2Cc1ccccc1 | -15 | -15 | 3.3 | 15% | 2
COc1ccc(NC(=O)c2ccc3ncsc3c2)c2ccccc12 | . | . | 0.8 | . | 96
CCOC(=O)C(/C(C)=N/NC(=O)c1ccccc1[N+](=O)[O-])C(C)C (stereo unspecified) | -23 | -5 | -0.4 | -1% | .
COCCCC1CCN(C(=O)C2CCC(=O)N(CC3CCCCC3)C2)CC1 (stereo unspecified) | . | . | 3.7 | . | 3
O=C(COC(=O)C1CC(=O)N(c2ccc3c(c2)OCCO3)C1)Nc1ccc2c(c1)CCC2 (stereo unspecified) | -47 | 6 | 3.3 | 6% | 6
O=C(c1ccc(S(=O)(=O)N2CCOCC2)cc1)N1CCN(C2=NS(=O)(=O)c3ccccc32)CC1 | -37 | 4 | 2.7 | -2% | 5
O=C(Cc1ccccc1)NCC(=O)N/N=C/c1ccc(Cl)cc1 | . | 3 | 1.1 | -3% | 6
COc1ccc(C(=O)NCC(=O)OCC(=O)Nc2cc([N+](=O)[O-])ccc2F)cc1 | . | 2 | -0.1 | 3% | 7
COC(=O)CSC1=C(C#N)C(c2ccc(C(C)C)cc2)CC(=O)N1 (stereo unspecified) | -51 | -7 | 0.1 | -10% | 1 | Arbovirus inh repeat=11
CC(C)(C)c1ccccc1NC(=O)c1ccco1 | -29 | 2 | 0.4 | 8% | 7
CN1CCN(c2ccccc2NC(=O)c2ccc(F)cc2)CC1 | . | . | 0.6 | 2% | -9
CCOCCCNCC(=O)Nc1ccccc1N1CCOCC1 | -35 | 12 | . | 2% | -9

More results:
SMILES | YopH inh | Arbovirus inh | RecA intein inh | Mtb H37Rv | Mtb betalactam | others
COc1cc2cc(CN(CCc3cccc(C)c3)C(=S)NCCCN(C)C)c(=O)[nH]c2cc1OC | -49 | -35 | -4.9 | 5% | -7
CN(C(=O)Cc1ccccc1)n1cnnc1 | -2 | 2 | 2.3 | -16% | -1
O=C(CCc1nnc(CCCCc2ccccc2)o1)N1CCCCC1CCO (stereo unspecified) | . | . | -2.3 | 4% | -2
Cc1cc(C)nc(Nc2nc(-c3ccccc3)cs2)n1 | . | . | -0.4 | . | 16
CCCCNC(=O)N1CCN(Cc2ccc(F)cc2)CC1 | . | 1 | -1.2 | -1% | -5

Grouped by structure, those above with an aryl methoxy group
SMILES | YopH inh | Arbovirus inh | RecA intein inh | Mtb H37Rv | Mtb betalactam | others
COc1cccc(NC(=O)Cn2c(CCC(=O)O)ccc2-c2cccs2)c1 | . | -4 | -3.2 | -1% | 2
COc1ccc(CCNC(=O)/C=C/c2ccco2)cc1OC | . | . | -1.3 | . | -3
COc1ccc(CCNC(=O)C(=O)NCC2OCCN2S(=O)(=O)c2ccc(Cl)cc2)cc1OC (stereo unspecified) | . | . | -8.8 | . | 0
COc1ccc(CN=CC2=C(O)CNC2=O)cc1OC | -26 | 3 | -4.0 | 8% | -2 | Arbovirus inh repeat=6
COc1ccc(S(=O)(=O)Nc2cccc(F)c2C)cc1C(=O)N1CCOCC1 | . | 5 | -4.3 | 1% | -1
COc1ccc(Oc2ccccc2/C=N/O)cc1 | -14 | 8 | 3.2 | 6% | 9
COc1ccc(C(=O)CSc2nnc(-c3ccccn3)n2Cc2ccco2)cc1 | -34 | -1 | 2.2 | -7% | -2
COc1ccc(-c2nnc(Nc3ccc(CC(N)=O)cc3)c3ccccc23)cc1 | -7 | -2 | -5.6 | 1% | 61
COc1ccc(NC(=O)CN(c2ccc(C)cc2)S(=O)(=O)c2c(C)nn(C)c2C)cc1 | . | . | -0.5 | . | 0
COc1ccc(C(=O)CC(=O)C(=O)Nc2ccc(C)c(Cl)c2)cc1 | . | . | 0.6 | . | 5
COc1ccc(NC(=O)c2ccc3ncsc3c2)c2ccccc12 | . | . | 0.8 | . | 96
COc1ccc(C(=O)NCC(=O)OCC(=O)Nc2cc([N+](=O)[O-])ccc2F)cc1 | . | 2 | -0.1 | 3% | 7
COc1cc2cc(CN(CCc3cccc(C)c3)C(=S)NCCCN(C)C)c(=O)[nH]c2cc1OC | -49 | -35 | -4.9 | 5% | -7

Bioassay records deposited in PubChem BioAssay by several laboratories.

Only part of the results is shown (hit frequency here may not be typical).
